VACV Venus inh: qHTS for Stage-Specific Inhibitors of Vaccinia Orthopoxvirus: Venus Reporter Primary qHTS. Vaccinia virus Venus reporter expression, fluorescence. Potency, µM (titrated, usually from 36.5 µM), inactives show at the top dose activity change, negative = inhibition, hits mostly inhibitors. 330,000 compounds, 0.46% hits. AID 720580, 2013; active means well fitted inhibition curve with a large enough effect; inconclusive means small, poorly fitted or top-dose-only effect; inactive means no such curve, though single readings can be large or run the other way; tested in A549 cells; also: nearly all actives have a fitted effect of over 30% in size; inactives centre near -10
Vaccinia mCherry: qHTS for Stage-Specific Inhibitors of Vaccinia Orthopoxvirus: mCherry Reporter Primary qHTS | Vaccinia virus mCherry reporter infection, fluorescence; about a quarter of the inactives have no number | Potency, µM (doses to about 36.5 µM), without a hit: at the top dose activity change, negative = inhibition, most hits filed as inhibitors | 310,000 compounds, 0.63% hits; active = well fitted inhibition curve with a large enough effect; inconclusive = small, poorly fitted or top-dose-only effect; inactive = no such curve, though single readings can be large or run the other way; tested in A549 cells; also: nearly all actives have a fitted effect of over 35% in size; inactives centre near -10
* marks the source's active call; other numbers are inactive results; i = inactive; ? = inconclusive; nt = no result given; & = joins results of further samples; [ ] = remark or other dose. % is scaled to controls: 0 for no effect and ±100 for the full control effect; potency is read from the fitted curve at half-maximal effect.

SMILES | VACV Venus inh | Vaccinia mCherry
CCCN(CCC)CC(O)CN1C(=O)N(CN2C(=O)N(CC(O)CN(CCC)CCC)C(=O)C2(C)C)C(C)(C)C1=O (stereo unspecified) | 2.5% | 5.4%
O=C(Nc1ccc(F)cc1Cl)C1CCN(c2ncnc3c2nc2n3CCCCC2)CC1 | -8.7% | -11.9%
CC(=O)Nc1cccc(NC(=O)Cn2cnc3c2c(=O)n(C)c(=O)n3C)c1 | 2.5% | -9.1%
CC1CN1P(=S)(c1ccccc1)N1CC1C (stereo unspecified) | -12.3% | -3.0%
Cc1ccc(-n2c(SCc3cccc(F)c3)nc3[nH]ncc3c2=O)cc1C | -8.7% | -15.8%
O=C(O)Cc1sc(Nc2ccc(C(=O)O)cc2)nc1-c1ccccc1 | 4.8% | 4.1%
Cc1ccc2cc3cc(C(=O)N4CC(C)CC(C)C4)oc3nc2c1 (stereo unspecified) | ? | ?
Cc1cc(=O)cc(C)n1-c1ccc(Cl)cc1 | -2.8% | -9.0%
Cc1ccc(S(=O)(=O)N2C3CC(c4ccccc4)N(S(=O)(=O)c4cccc(Cl)c4)CC3C(=O)C[C@H]2c2ccccc2)cc1 (stereo partly specified) | -13.1% | -27.6%
COc1ccc2[nH]cc(C(=O)CN3CCCCC3)c2c1 | -17.8% | nt
CCOC(=O)CCN(Cc1cccs1)S(=O)(=O)c1ccc(Cl)cc1 | -8.3% | -12.3%
Cn1c(N)c(C(=O)CSc2nc3ccccc3[nH]2)c(=O)n(C)c1=O | -4.9% | -8.7%
CN(C)S(=O)(=O)c1cccc(NC(=S)Nc2cc(Cl)cc(Cl)c2)c1 | -29.5% | ?
COc1ccc(/C=N/NS(=O)(=O)c2ccccc2)cc1OC(=O)c1ccc(C)cc1 | 0.3% | -15.3%
CC(=O)Nc1ccc(NC(=O)C(C)OC(=O)C2(c3ccc(Cl)cc3)CCCC2)cc1 (stereo unspecified) | -13.7% | -2.9%
CC(C)C1C(=O)N(Cc2cn(CCC3OCCCO3)nn2)CCS(=O)(=O)N1Cc1ccc(-c2ccncc2)cc1 (stereo unspecified) | -17.1% | -5.7%
COC(=O)c1ccc2nc(-c3cccc(Cl)c3)c(Cc3ccccc3)n2c1 | 2.6% | -5.3%
CC1=NN(c2ccccc2)C(=O)/C1=C/c1ccc(-c2ccc(C)c(C(=O)O)c2)o1 | 1.2% | -2.9%
Cc1cc2cc(CCNC(=O)CC(C)(C)C)c(=O)[nH]c2cc1C | -28.7% | -8.0%
Cc1c(NC(=O)c2ccc3c4c(cccc24)CC3)c(=O)n(-c2ccccc2)n1C | -5.3% | i
Cc1ccc(C)c(NC(=O)CN(C)C(=O)/C=C/c2ccco2)c1 | -4.5% | -24.4%
CCOC(=O)C1CCCN(c2c(C(=O)c3ccc(OCC)cc3)cnc3ccccc23)C1 (stereo unspecified) | -3.0% | i
Cc1ccc(C)c(NC(=S)NCCc2ccc(S(N)(=O)=O)cc2)c1 | -9.7% | -15.9%
Cc1ccn2c(=O)nc(SCC(=O)NCc3ccc4c(c3)OCO4)nc2c1 | -3.7% | -1.6%
COc1cc(C(=O)Nc2nccs2)c(Br)c(OC)c1OC | -16.6% | -24.8%
COc1ccc(S(=O)(=O)N2CCN(S(=O)(=O)c3ccc4c(c3)OCCO4)CC2)cc1C | -16.0%&-2.7% | 32.8%&-14.5%[activator]
Cc1ccc(N/C=C(\[N+](=O)[O-])S(=O)(=O)c2ccccc2)cc1 | -1.6% | -1.5%
COC(=O)c1ccc2nc(-c3ccc(Cl)cc3)c(Cc3cccc(Cl)c3)n2c1 | 7.7% | -5.4%
Cc1nnc(SCC(=O)N(Cc2ccccc2)C(C)C)n1-c1ccccc1 | -1.6% | nt
COCCCNc1oc(/C=C/c2cc(OC)c(OC)c(OC)c2)nc1C#N | -10.3% | -7.9%
CN(C)CCN1CCN(C2CN(Cc3cn(Cc4ccc(F)cc4)nn3)S(=O)(=O)C2)CC1 (stereo unspecified) | -2.0% | 2.2%
O=C(/C=C/c1ccco1)OCn1nnc2ccccc2c1=O | -2.0% | -11.2%
COCCn1c(C)cc(O)c(C(c2ccccc2Cl)N2CCCCC2)c1=O (stereo unspecified) | -7.3% | -13.4%
O=C(COC(=O)c1ccccc1-n1cnnn1)c1ccc(Br)cc1 | -14.1% | i
C#CCOCCOCCOCCNc1nc(N2CCN(C(=O)Cn3cc(CCCN=C(N)N)nn3)CC2)nc(N2CCN(C(=O)[C@H](C(C)C)n3cc(CCO)nn3)CC2)n1 | -1.3% | i
Cc1cc(Br)cn2c(Cc3ccccc3)c(-c3ccc(C#N)cc3)nc12 | -0.9% | i
C/C=C/C(=O)N1CC2(CC(c3cccc(NC(=O)/C(C)=C/C)c3)=NO2)C[C@H]1C(N)=O (stereo partly specified) | -5.3% | -21.9%
O=C1C2C3C=CC(CC3)C2C(=O)N1c1ccc(Br)cc1[N+](=O)[O-] (stereo unspecified) | -10.4% | ?
CCOC(=O)c1ccc(Nc2c(-c3ccc(O)cc3)nc3nc[nH]n23)cc1 | -6.4% | -7.2%
O=C(CN1CCN(c2nc(-c3ccc(Cl)cc3)cs2)CC1)NCc1ccco1 | -17.0% | ?
Cc1ccc(S(=O)(=O)n2nc(-c3ccccc3)nc2NCc2ccc(Cl)cc2)cc1 | 1.2% | 9.9%
CC1(C)Cc2cccc(OCC(=O)N3CCN(S(=O)(=O)c4ccccc4F)CC3)c2O1 | ? | ?
Cc1ccc2c(c1)-c1ncc(C(=O)c3cc(Br)ccc3O)cc1CO2 | -8.6% | -5.6%
O=C(COc1ccc(OCc2ccccc2)cc1)NN=C1CCCC1 | -1.3% | -6.4%
O=C(Nc1cc(Cl)ccc1N1CCOCC1)c1ccc2c(c1)OCCO2 | 0.2% | i
COc1cccc2sc(=NC(=O)CCS(=O)(=O)c3ccc(C)cc3)n(C)c12 | -17.7% | -28.4%
Cc1nn(C)cc1S(=O)(=O)Nc1ncccn1 | -16.2% | i
N#CCSc1nc2ccccc2c(=O)n1C1CCCCC1 | -8.3% | i

Shown with values under each structure: entries from further up.
Under each structure: VACV Venus inh | Vaccinia mCherry
O=C1C2C3C=CC(CC3)C2C(=O)N1c1ccc(Br)cc1[N+](=O)[O-] (stereo unspecified)
    -10.4% | ?
CC1(C)Cc2cccc(OCC(=O)N3CCN(S(=O)(=O)c4ccccc4F)CC3)c2O1
    ? | ?

The results go on:
SMILES | VACV Venus inh | Vaccinia mCherry
NC(=O)C1=C[C@@H](c2csc3ccccc23)C[C@@H](OCCCCO)O1 | -8.8% | ?
N#C/C=C/C#N | -9.5% | -4.3%
CCOC(=O)C1=C(COC(=O)c2ccc(Cl)cc2[N+](=O)[O-])NC(=O)NC1C (stereo unspecified) | -6.7% | -9.7%
O=C(O)CSc1nnc(CSc2nc3ccccc3s2)n1-c1ccccc1 | -11.5% | -0.8%
COc1ccc2nc(SCC(=O)N(C)CC(=O)Nc3ccc(F)cc3)[nH]c2c1 | -11.6% | -6.1%
O=c1[nH]nc(Cc2ccc(-c3cccc(Cl)c3)o2)c2ccccc12 | -27.1% | -16.2%
Cc1ccc(C(=O)Nc2ccccn2)cc1S(=O)(=O)N1CCOCC1 | -14.9% | -18.9%
COc1ccc(-c2c(-c3ccccc3OC)sc3ccccc23)cc1OC | -7.6% | -1.0%
Cc1cnc(NC(=O)CSc2nnc(N)s2)s1 | -3.1% | 0.8%
Cc1ccc(-c2nn(-c3ccccc3)cc2CN(C)C(=O)CCC(=O)O)cc1C | -3.6% | -13.6%
O=C(NCCCn1ccnc1)C1CC2CCC1C2 (stereo unspecified) | -5.4% | -16.8%
Cc1cc(C)c(-c2cc(C)nc3ncnn23)c(C)c1 | -3.3% | 1.5%
CCOC(=O)N/N=C\c1ccc(OC/C=C/c2ccccc2)c(OC)c1 | -10.0% | -17.5%
CC(=O)OCC1OC(OCc2cn(C[C@H]3CC[C@H](Cn4cc(COC5OC(COC(C)=O)C(OC(C)=O)C(OC(C)=O)C5OC(C)=O)nn4)O3)nn2)C(OC(C)=O)C(OC(C)=O)C1OC(C)=O (stereo partly specified) | -4.0% | -13.6%
O=C1COc2ccc(C(=O)COC(=O)CCc3ccc(S(=O)(=O)N4CCOCC4)cc3)cc2N1 | -15.8% | nt
CCCOc1ccc(-c2nc(OCC)c3ccccc3n2)cc1 | -6.9% | i
CCc1nc2ccc(C(=O)N(C)Cc3ccco3)cn2c1N(C)CCCc1ccccc1 | -8.8% | i
COc1ccc2c(Sc3ccc(C)cc3)c(C(=O)NCCc3ccccc3)[nH]c2c1 | -30.0% | ?
CC(=O)Nc1ccccc1NC(=O)C/C(C)=N/NC(=O)Cc1cccc2ccccc12 | -8.2% | i
N#Cc1c(Nc2ccc(Cl)cc2)s[nH]c1=O | -14.2% | -1.6%
CCOn1c(=O)c(=O)n(O)c2ccccc21 | -4.0% | 2.8%
Cc1cccc(C)c1NC(=O)Cn1c(=O)n(Cc2ccccc2)c(=O)c2c(C)c(C(=O)N(C)C)sc21 | -5.6% | -13.5%
O=C(Nc1cccc(Cl)c1)C1C2CCC3C(CCC21)C3(Cl)Cl (stereo unspecified) | ? | -14.6%
Cn1c2ccccc2c(=O)c2cc(C#CC3=CCCCC3)ccc21 | -7.4% | i

Whole records as entered above. Values in the order: VACV Venus inh	Vaccinia mCherry
N#Cc1c(Nc2ccc(Cl)cc2)s[nH]c1=O across the screens: -14.2%	-1.6%
Cc1cccc(C)c1NC(=O)Cn1c(=O)n(Cc2ccccc2)c(=O)c2c(C)c(C(=O)N(C)C)sc21 across the screens: -5.6%	-13.5%
CC(=O)OCC1OC(OCc2cn(C[C@H]3CC[C@H](Cn4cc(COC5OC(COC(C)=O)C(OC(C)=O)C(OC(C)=O)C5OC(C)=O)nn4)O3)nn2)C(OC(C)=O)C(OC(C)=O)C1OC(C)=O (stereo partly specified) across the screens: -4.0%	-13.6%

Next section.
SMILES | VACV Venus inh | Vaccinia mCherry
Clc1cccc(CNc2ccn3nc(-c4ccc(OCc5ccccc5)cc4)cc3n2)c1 | -28.1% | ?
CN1CCN(Cc2ccc(Br)s2)CC1 | -5.5% | -4.3%
Cc1ncn(C23CC4CC(CC(C4)C2)C3)n1 | -7.2% | -12.3%
CCOc1ccc(CNC(=O)c2ccc(Sc3ccc(C)cc3)c(NC(C)=O)c2)cc1 | -25.4% | -8.9%
Cc1ccccc1OCC(=O)NCC(=O)OC(c1ccccc1)c1ccccc1 | -15.2% | i
Cc1cccc(C)c1NC(=O)c1nc(S(C)(=O)=O)ncc1N(Cc1ccc(C(C)(C)C)cc1)Cc1ccco1 | -11.7% | -13.2%
Cc1cc(C)c(C(=O)N2CCC(N3CCC(C(=O)NC(C)C)CC3)CC2)o1 | -11.1% | i
CC1=[N+]([O-])C(C)(C)N(O)C1(C)C | -4.4% | -13.4%
COC(=O)[C@]1(Cc2ccccc2)N[C@H](CN(C)S(=O)(=O)c2ccc(F)cc2)[C@@H]2C(=O)N(Cc3ccccc3)C(=O)[C@@H]21 | 0.0% | -0.5%
O=C(CSc1nnnn1-c1ccccc1)Nc1ncc2c(n1)CC(c1ccco1)CC2=O (stereo unspecified) | -4.0% | nt
O=C(N/N=C/c1ccccc1OCc1ccccc1)c1cccnc1 | -4.8% | -26.6%
Cc1nn(-c2ccccc2)c(Cl)c1/C=C(\C#N)C(=O)NC(C)C | 5.0% | -2.8%
Cc1ccc(NS(=O)(=O)c2ccc3[nH]c4c(c3c2)CCCCCC4)cc1Cl | -18.7% | -15.6%
Cc1ccccc1S(=O)(=O)Cc1ccc(C(=O)O)o1 | -13.1% | i
COCCNC(=S)Nc1ccc(N2CCOCC2)c(S(=O)(=O)Nc2ccc(Cl)cc2)c1 | -19.3% | i
CCOc1ccc(-c2nnc(SCC(=O)Nc3cccc(OC)c3)nc2-c2ccc(OCC)cc2)cc1 | -14.9% | -6.7%
C=CCN1C(=O)C(Cc2ccc(OC)cc2)S/C1=N\N=C\c1cccs1 (stereo unspecified) | -11.3% | -11.1%[1.46 µM]
Cc1noc(C)c1NC(=O)Nc1ccc2c(c1)CC(=O)N([C@@H](C)CO)C[C@@H](C)[C@@H](CN(C)C(=O)Nc1cccc3ccccc13)O2 | 0.9% | -1.8%
CN1C(=O)C(O)(CC(=O)/C=C/c2ccco2)c2ccccc21 (stereo unspecified) | -18.7% | -17.2%
COc1ccccc1CNC(=O)c1ccc(CS(=O)c2ccccc2Cl)o1 (stereo unspecified) | -12.9% | -13.9%
CCN(CC(=O)Nc1ccccc1C(F)(F)F)C(=O)c1ccc2c(c1)NC(=O)CS2 | -9.1% | -14.5%
O=C(c1cccc(Cl)c1)N1CCCc2ccccc21 | -12.4% | i
CCC(C)N(CC(=O)Nc1cccc(C)c1C)C(=O)CCl (stereo unspecified) | ? | 4.47µM*
Cc1ccccc1NC(=O)c1cccc(NC(=O)c2c(C(=O)O)cccc2[N+](=O)[O-])c1 | -10.3% | -7.3%
O=C(O)/C=C/c1ccc(Cn2ccnc2)cc1 | -9.3%&-6.3% | -4.7%&-13.2%
O=C(NNC(=O)c1ccccc1F)c1ccc(-n2cncn2)c([N+](=O)[O-])c1 | -4.5% | -10.2%
O=C(Cn1c2ncccc2c(=O)n1-c1ccccc1)NCc1ccccc1Cl | -9.4%[7.34 µM] | -6.6%[7.34 µM]
O=C(CN1CCN(Cc2ccccc2)CC1)NNC(=O)c1ccc(Cl)cc1 | -15.6% | -29.0%
CS(=O)(=O)n1nc(-c2ccc(Cl)cc2)nc1N | -10.0% | i
COc1ccc(N2C(=O)NC3CC2(C)Oc2ccc(Br)cc23)cc1OC (stereo unspecified) | -14.2% | nt
Cc1ccc(N(C(=O)CS(=O)CC(=O)Nc2ccc(F)cc2)C(C)C(=O)NC(C)(C)C)cc1 (stereo unspecified) | -12.2% | -2.5%
O=C(Nc1ccc2nc(-c3ccco3)[nH]c2c1)c1cccs1 | 7.5% | -6.4%
